VACV mCherry inh: vaccinia inhibition (mCherry reporter); 310,000 compounds, 0.63% hits; Potency, µM (highest dose often 36.5 µM), without a hit: at the highest dose activity change, negative = inhibition, most hits filed as inhibitors; Vaccinia virus mCherry reporter infection, fluorescence; about a quarter of the inactives have no number; active = well fitted inhibition curve with a large enough effect; inconclusive = small, poorly fitted or top-dose-only effect; inactive = no such curve, though single readings can be large or run the other way; tested in A549 cells; note: nearly all actives have a fitted effect of over 35% in size; inactives centre near -10
Vaccinia Venus: inhibitors of vaccinia virus (Venus reporter). Vaccinia virus Venus reporter expression, fluorescence. Potency, µM (top dose mostly 36.5 µM), for the others: at the highest dose activity change, negative = inhibition, hits mostly inhibitors. 330,000 compounds, 0.46% hits. AID 720580; active means well fitted inhibition curve with a large enough effect; inconclusive means small, poorly fitted or top-dose-only effect; inactive means no such curve, though single readings can be large or run the other way; tested in A549 cells; note: nearly all actives have a fitted effect of over 30% in size; inactives centre near -10
* hit, by the source's call; i = inactive; ? = inconclusive; · = not tested or not shown; [ ] = remark or other dose. % is set by controls: 0 for no effect and ±100 for the full control effect; potency is the fitted concentration of half-maximal effect. An unsorted share of the library; about 0.86% have a hit in one of these screens.

A first look (two entries):
SMILES	VACV mCherry inh	Vaccinia Venus
O=C1NC[C@@H](CCCCN2C[C@H](Cc3ccccc3)N(CCC3CCCCC3)C(=O)C2=O)N(CCc2ccccc2)C1=O	-11.1%	-0.8%
CCc1ccc(C(=O)c2cnc3ccc(OC)cc3c2N2CCN(CC)CC2)cc1	-14.9%	-2.5%

The list itself (from the top)
SMILES	VACV mCherry inh	Vaccinia Venus
O=C1NC[C@@H](CCCCN2C[C@H](Cc3ccccc3)N(CCC3CCCCC3)C(=O)C2=O)N(CCc2ccccc2)C1=O	-11.1%	-0.8%
CCc1ccc(C(=O)c2cnc3ccc(OC)cc3c2N2CCN(CC)CC2)cc1	-14.9%	-2.5%
CN(C)S(=O)(=O)c1cccc(NC(=O)c2c[nH]c3ccccc23)c1	-22.8%	-10.1%
COc1cccc(CNC(=O)CCS(=O)(=O)c2ccc3c(c2)NC(=O)CO3)c1	-7.2%	-11.4%
Cc1nn(Cc2ccc(Cl)cc2)c(C)c1NC(=O)CCCn1nc([N+](=O)[O-])c(Cl)c1C	?	-29.0%
CCOC(=O)N1CCN(C(=O)c2cc3cc(F)ccc3[nH]2)CC1	-1.5%	-11.4%
O=C(CSCc1ccc(Cl)cc1)N1CCCCC1	·	1.6%
COC(=O)COc1ccc(NC(=O)C2CCCO2)cc1 (stereo not given)	-10.7%	-1.3%
CCN(C1CCCCC1)S(=O)(=O)CCNC(=O)c1ccc(OC)cc1	i	-10.6%
O=C(c1cc(-c2ccc(Cl)cc2Cl)on1)N1CCCCCC1	-18.3%	-19.0%
Cc1ccc(-n2ncc(C(=O)N3CCN(Cc4ccccc4)CC3)c2C2CCN(C(=O)OC(C)(C)C)CC2)c(C)c1	-5.1%	-8.2%
COc1ccc(Br)cc1CNC(=O)Cc1c(C(=O)O)[nH]c2ccc(Cl)cc12	1.2%	-10.2%
COCCCN(Cc1cc(OC)c(OC)c(OC)c1)C(=S)Nc1cccc(Cl)c1	-14.8%	-18.8%
CC(NC(=O)c1cc2cc([N+](=O)[O-])ccc2oc1=O)C1CCCO1 (stereo not given)	-10.4%	5.7%
Cc1ccc(C(=O)NCC(=O)Nc2ccccc2C)o1	i	-17.4%
CCN(CC1CCCN(CCc2cccc(F)c2)C1)C(=O)c1cc2ccccc2o1 (stereo not given)	-25.3%	?
CN(C[C@H](Cc1ccccc1)N(C[C@H](Cc1ccccc1)N(CC1(c2ccccc2)CC1)N=O)N=O)N=O	i	-3.9%
Cc1c(NC(=S)NC(C)(C)C)c(=O)n(-c2ccccc2)n1C	i	-4.0%
COc1cc(OC)c2c(-c3cccc(-c4ccc(C#N)cc4)c3)cc(=O)oc2c1	-8.9%	-28.8%
O=S1(=O)CC(N2CCCC2)CN1Cc1cn(Cc2ccc(Cl)cc2)nn1 (stereo not given)	-4.4%	-1.8%
CCCNC(=O)CN(c1cccc(F)c1)S(C)(=O)=O	-3.4%	-11.1%
O=C(O)c1cccc(NC(=S)NCc2ccccc2)c1	1.0%	-11.8%
O=C(c1ccc(CS(=O)(=O)c2ccc(Br)cc2)o1)N1CCCC1	29.3%	-12.2%
COc1ccccc1C(=O)N1CC(=O)Nc2ccc(F)cc2C1c1ccccc1 (stereo not given)	-16.6%	-23.7%
COCCn1c(SC(C)C(=O)NCC2CCCO2)nc2sc3c(c2c1=O)CCC3 (stereo not given)	-18.8%	-3.3%
CC1(C)CC(=O)C2=C(C1)Nc1ccccc1N1C(=O)c3ccccc3C21 (stereo not given)	i	-11.8%
Cc1ccc(C(=O)NC(=S)NNS(=O)(=O)c2ccc(C)cc2)cc1	-7.3%	-8.0%
Cc1ccc2c(c1)C(O)(CC(=O)c1ccc3c(c1)OCO3)C(=O)N2 (stereo not given)	-3.3%	3.2%
CSCCC(NC(=O)c1ccc(Cl)c([N+](=O)[O-])c1)C(=O)N1CCN(C/C=C/c2ccccc2)CC1 (stereo not given)	-13.1%	-12.6%
NC(=O)C1CCN(C(=O)CNC(=O)c2ccccc2)CC1	-8.0%	-4.1%
CNC(=O)/C(C#N)=C/c1ccc(-c2ccccc2[N+](=O)[O-])o1	-14.8%	3.0%
O=C(Nc1ncccc1O)c1ccc(Cl)c(S(=O)(=O)N2CCCC2)c1	i	-4.0%
Cc1ccc(NC(=O)Nc2nnc(Cc3ccc([N+](=O)[O-])cc3)s2)cc1	-7.3%	-26.3%
COC(=O)c1cc(-c2ccc(Br)cc2)n[nH]1	·	-21.5%
CC1(C(=O)NS(=O)(=O)C2CC2)CCCN(C(=O)c2ccco2)C1 (stereo not given)	-6.9%	5.2%
O=C(Cc1nc(-c2cnccn2)no1)NNC(=O)Nc1ccccc1	-16.8%	-12.3%
O=C(Cn1cc(C(F)(F)F)ccc1=O)N/N=C/c1ccc(O)cc1	-14.1%	3.0%
CCC(C)[C@H](NC(=O)N1CC(=O)Nc2ccccc21)C(=O)N[C@@H](C(=O)O)c1ccccc1 (stereo not given in full)	-17.0%	-11.4%
O=C(Cc1ccccc1)Nc1ccc2c(c1)CCC2	-22.8%	-23.1%
COC(=O)C(=C/C=C/c1cccnc1)C(=O)OC	-3.2%	-4.9%
Cc1cccc(NC(=S)NC(=O)/C=C/c2ccccc2)n1	-16.3%	0.2%
Cc1ccc(CCNC(=O)c2ccc(CNS(=O)(=O)c3ccccc3)cc2)cc1	-7.6%	-19.3%
CC1Cc2ccccc2N1C(=O)CNc1cccc(S(=O)(=O)N2CCCC2)c1 (stereo not given)	i	-4.8%
Cc1cccc(C)c1NC(=O)CN1C(=O)N(C)Cc2ccccc21	-10.1%	-3.0%
Cc1ccc(NC(=O)Cn2nc(C)cc2C)cc1	-11.0%	-6.3%
CCOC(=O)C1=NNC(C(=O)c2ccc(C)cc2)C1c1ccc(C)cc1 (stereo not given)	-14.4%	-14.6%
COc1ccc(C(=O)Nc2ccccc2N2CCOCC2)cc1S(=O)(=O)N1CCCC1	-12.0%	-3.0%
C[C@@H]1CN([C@H](C)CO)C(=O)CCCn2nncc2CO[C@H]1CN(C)Cc1ccccc1	i	-25.2%
CCC1C(=O)NCCN1C(=O)c1cc(COc2cc(C)ccc2C)on1 (stereo not given)	-20.8%	-13.2%
O=C(Nc1cccc(NC(=O)c2sc3ccccc3c2Cl)c1)c1ccco1	-7.9%	?
CCOC(=O)c1cc(C(O)(C(=O)OC)C(F)(F)F)c(/N=C/N(C)C)o1 (stereo not given)	-17.0%	-7.1%
Cc1ccc(C)c(CN2C(=O)c3ccccc3S(=O)c3ccc(C(=O)NCc4ccco4)cc32)c1 (stereo not given)	-7.4%	-8.0%
O=C(CSc1ccc(Br)cc1)NCC1(N2CCCCC2)CCCCC1	-23.2%	-15.3%
Cc1nn(CCC(N)=O)c2nc(-c3cccs3)cc(C(F)(F)F)c12	-8.8%	-26.6%
CCOc1ccccc1C1CC(=O)Nc2c1c(=O)n(C)c1ncnn21 (stereo not given)	0.1%	5.5%
CCOc1ccccc1NC(=S)N1CCN(c2nc(-c3cccc(OC)c3)cs2)CC1	i	-21.6%
O=C(CCNS(=O)(=O)c1cccc2nsnc12)NC1CCCc2ccccc21 (stereo not given)	-4.0%	5.7%
Clc1ccc(C(c2nnnn2C2CCCC2)N2CCN(c3nc4ccccc4s3)CC2)cc1 (stereo not given)	-3.8%	4.8%
CC1(C)CSC(=NCCc2ccccc2)N1	-1.4%	-6.6%
CCc1ccc(S(=O)(=O)c2cn(C)c3cc(N4CCCCC4C)c(F)cc3c2=O)cc1 (stereo not given)	-7.0%	-17.1%

Rewritten with two lines to a compound: 20 of the compounds above.
The line under a structure holds: VACV mCherry inh	Vaccinia Venus
> Cc1cccc(NC(=S)NC(=O)/C=C/c2ccccc2)n1
    -16.3%	0.2%
> Cc1ccc(CCNC(=O)c2ccc(CNS(=O)(=O)c3ccccc3)cc2)cc1
    -7.6%	-19.3%
> CC1Cc2ccccc2N1C(=O)CNc1cccc(S(=O)(=O)N2CCCC2)c1 (stereo not given)
    i	-4.8%
> Cc1cccc(C)c1NC(=O)CN1C(=O)N(C)Cc2ccccc21
    -10.1%	-3.0%
> Cc1ccc(NC(=O)Cn2nc(C)cc2C)cc1
    -11.0%	-6.3%
> CCOC(=O)C1=NNC(C(=O)c2ccc(C)cc2)C1c1ccc(C)cc1 (stereo not given)
    -14.4%	-14.6%
> COc1ccc(C(=O)Nc2ccccc2N2CCOCC2)cc1S(=O)(=O)N1CCCC1
    -12.0%	-3.0%
> C[C@@H]1CN([C@H](C)CO)C(=O)CCCn2nncc2CO[C@H]1CN(C)Cc1ccccc1
    i	-25.2%
> CCC1C(=O)NCCN1C(=O)c1cc(COc2cc(C)ccc2C)on1 (stereo not given)
    -20.8%	-13.2%
> O=C(Nc1cccc(NC(=O)c2sc3ccccc3c2Cl)c1)c1ccco1
    -7.9%	?
> CCOC(=O)c1cc(C(O)(C(=O)OC)C(F)(F)F)c(/N=C/N(C)C)o1 (stereo not given)
    -17.0%	-7.1%
> Cc1ccc(C)c(CN2C(=O)c3ccccc3S(=O)c3ccc(C(=O)NCc4ccco4)cc32)c1 (stereo not given)
    -7.4%	-8.0%
> O=C(CSc1ccc(Br)cc1)NCC1(N2CCCCC2)CCCCC1
    -23.2%	-15.3%
> Cc1nn(CCC(N)=O)c2nc(-c3cccs3)cc(C(F)(F)F)c12
    -8.8%	-26.6%
> CCOc1ccccc1C1CC(=O)Nc2c1c(=O)n(C)c1ncnn21 (stereo not given)
    0.1%	5.5%
> CCOc1ccccc1NC(=S)N1CCN(c2nc(-c3cccc(OC)c3)cs2)CC1
    i	-21.6%
> O=C(CCNS(=O)(=O)c1cccc2nsnc12)NC1CCCc2ccccc21 (stereo not given)
    -4.0%	5.7%
> Clc1ccc(C(c2nnnn2C2CCCC2)N2CCN(c3nc4ccccc4s3)CC2)cc1 (stereo not given)
    -3.8%	4.8%
> CC1(C)CSC(=NCCc2ccccc2)N1
    -1.4%	-6.6%
> CCc1ccc(S(=O)(=O)c2cn(C)c3cc(N4CCCCC4C)c(F)cc3c2=O)cc1 (stereo not given)
    -7.0%	-17.1%

(more compounds)
SMILES	VACV mCherry inh	Vaccinia Venus
O=C(CC12CC3CC(CC(C3)C1)C2)N/N=C\c1ccc[nH]1	-7.7%	6.0%
Cc1nn(C)c(C(=O)NNC(=S)NCc2ccco2)c1Br	-18.7%	-6.5%
COc1ccccc1NC(=O)c1ccc(NC(=O)CN2CCCC2)cc1	i	-22.2%
O=C(NNC(=O)c1cc(Br)c(Br)s1)c1csc(N2CCOCC2)n1	-15.1%	-11.0%
O=C(/C=C/Nc1ccc(F)cc1F)c1ccc(Br)cc1	-9.3%	-5.7%
COc1ccc(-c2ccc(-c3noc(-c4ccccc4F)n3)c(OC)n2)cc1	-6.6%	-11.3%
Cc1c(C2(c3cc(C(C)C)c(O)c(Br)c3C)OS(=O)(=O)c3ccccc32)cc(C(C)C)c(O)c1Br	-9.4%	-7.4%
CC(C)C(=O)Nc1nnc(S(=O)(=O)N(C)Cc2ccc(F)cc2)s1	-8.2%	-0.9%
COc1ccc(C(=O)C2CCCN(Cc3cnc(C)s3)C2)c(OC)c1 (stereo not given)	-22.1%	-27.7%
CC[n+]1c(/C=C/c2ccc(N(C)C)cc2)ccc2ccccc21	301.3%[activator]	391.6%[activator]
CN(C)c1ccc(C(CNS(=O)(=O)c2cccc([N+](=O)[O-])c2)N2CCOCC2)cc1 (stereo not given)	?	0.7%
O=C(CN1CCN(c2ccccc2F)CC1)Nc1ccc2c(c1)CCC2	-22.9%	-6.0%
O=C(Nc1cc(S(=O)(=O)N2CCOCC2)ccc1N1CCOCC1)c1cccs1	-14.3%	-5.6%
O=[N+]([O-])c1ccc(OCc2n[nH]c(=S)n2-c2ccccc2)cc1	-28.7%	-15.8%
COc1ccc2c(c1)OC[C@H]1[C@H]2N2C(=O)[C@H](C)NC(=O)[C@@]2(C)[C@H]1c1ccccc1	i	-6.7%
Cc1nn(-c2ncc(C(F)(F)F)cc2Cl)c(=O)n1-c1ccccc1F	-6.7%	-6.5%
COc1cccc(C(=O)C2CN(C)CC2c2ccc(Cl)cc2)c1 (stereo not given)	-23.2%	-17.0%
CC(=O)Nc1nc(C)cs1	-6.9%	1.9%
COc1ccc(Nc2nnc(SCC(=O)NC3CCS(=O)(=O)C3)s2)cc1 (stereo not given)	?	-2.0%
COc1ccccc1NC(=O)CSc1nnc(CCNC(=O)c2ccc(C)cc2)n1C	-11.3%	-7.2%
COC(=O)c1ccccc1-c1cc(C)cc2c1OC(CNC(=O)c1ccn(C)n1)C2 (stereo not given)	-15.4%	-12.1%
CCOC(=O)c1cnc(-c2ccccc2)nc1Oc1ccc(OC)cc1	i	-11.5%
CCCCSCCCNC(=O)c1cn(CC)c2ccc(S(=O)(=O)N3CCCCCC3)cc2c1=O	-29.0%	-27.3%
Cc1cccc(-c2cc3nc(C)cc(NCCCn4ccnc4)n3n2)c1	i	-10.8%
Cc1ccc2nc(N3C(=O)C(O)=C(C(=O)c4ccc(C)o4)C3c3cccc(O)c3)sc2c1 (stereo not given)	i	7.0%
CCn1c(SCC(=O)N2CCN(c3ccccc3F)CC2)nnc1-c1ccoc1C	-9.7%	-27.3%
O=[N+]([O-])c1ccc(S(=O)Cc2ccccc2)c([N+](=O)[O-])c1 (stereo not given)	-6.4%	-15.5%
COc1cc(C(=O)CCN2CCC(c3ccccc3)C2)cc(OC)c1OC (stereo not given)	?	?

Screening results as filed in PubChem BioAssay.
